S aureus helic: S. aureus DNA helicase inhibition. 120,000 tested, 0.05% active. inhibition, %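 (tested at about 80 µM)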. purified S. aureus helicase, fluorescence unwinding assay; about half of the hits fall short of the stated cut;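 active means both duplicates at 50% or more, or one of them with a favoured structure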;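 further: 0% = mean of negative control wells and 100% = mean of positive control wells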
MgrA DNA FP: S. aureus MgrA-DNA binding modulation; fluorescence polarization; inhibition, %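 (about 10 µg/mL by stock and volumes)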; 84,000 tested, 0.13% active;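 active means above 50% in either of two replicates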;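 further: 0% = protein plus DNA without compound and 100% = DNA alone without protein; higher means less MgrA bound to DNA so lower polarization; one replicate is shown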
Numbers without * were called inactive; x = no result given; & = joins results of further samples.

SMILES	S aureus helic	MgrA DNA FP
CCC(CO)N1CNC(=S)NC1 (configuration not stated)	x	0.3
COc1ccc(Cl)cc1NC(N)=S	x	0.1
Cc1ccc(S(=O)(=O)N/N=C/c2ccc([N+](=O)[O-])cc2)cc1	x	0.4
O=C(c1ccc(N2CCOCC2)nc1)N1CCCCCC1	x	-1.9
CCN(CC)C(=O)c1cc(-c2ccco2)on1	15	x
Cc1ccnc(SCC(=O)NC(c2ccccc2)c2ccccc2)n1	-5	-2.6
CS(=O)(=O)c1cccc(S(=O)(=O)NCc2ccco2)c1	3	x
COc1nc(-c2ccccc2)cc(-c2ccc(Cl)cc2)c1C#N	x	0.2
OC(c1ccccc1)(c1ccccc1)C1CCCN1Cc1ccccc1 (configuration not stated)	21	-4.4
Cc1ccc(-c2n[nH]c(=O)c3ccccc23)cc1S(=O)(=O)N(C)C1CCCCC1	4	x
O=c1oc(-c2cccc(Cl)c2)nc2c1cnn2-c1ccccc1	1	1.4
COC(=O)c1sc(SC)c(C#N)c1-c1ccc(C)cc1	x	0.8
c1ccc(CN(Cc2ccccc2)c2ncnc3nc[nH]c23)cc1	8	x
CCc1ccc(NC(=O)NC2CCN(C(C)C)CC2)cc1	-2	0.4
CN(C(=O)c1cccc(S(=O)(=O)N(C)C)c1)c1ccccc1	10	-3.8
Cn1c(SCc2ccccc2Cl)nnc1C(O)C(O)c1nnc(SCc2ccccc2Cl)n1C (configuration not stated)	-2	0.7
N#CC1=C(N)OC2=C(CCCC2=O)C1c1ccccc1C(F)(F)F (configuration not stated)	4	-1.2
CCOc1ccc(-c2cc(NC(=O)Cn3ncc4c(=O)oc5ccc(C)cc5c43)on2)cc1	14	x
NC(=O)c1c(/N=C/C(Br)=C/c2ccccc2)sc2c1CCC2	-18	1.9
CC1(C)OC(C)(C)/C(=C\c2ccc(F)cc2)C1=O	4	-1.8
COc1cc(=O)oc2ccccc12	x	0.2
CC(=O)Nc1ccc(C(=O)CN2C(=O)NC(C)(c3ccc4c(c3)OCCO4)C2=O)c(F)c1 (configuration not stated)	-2	x
COc1cccc(CN(C)C(=O)COC(=O)c2cc(C)cc(C)c2)c1	4	x
CCOc1cc(CNS(=O)(=O)c2ccc3c(c2)CCCC(=O)N3)cc(OCC)c1OCC	7	x
O=C1c2ccccc2CCc2sccc21	14	x
CC(C)(C)C(=O)/C=C/Nc1ccccc1C(N)=O	0	1.2
CCC(=O)Nc1cc(-c2nc3cccnc3s2)ccc1C	-1	-0.2
O=C(O)C(Sc1ncn[nH]1)c1ccccc1 (configuration not stated)	-21	x
CCOC(=O)C1=C(C)NC2=C(C(=O)C(C(=O)OCC)C(c3ccco3)C2)C1c1ccc2c(c1)OCO2 (configuration not stated)	5	-2.7
O=C(Cn1c2c(c(-c3ccccc3Cl)cc1=O)CCC2)NC1CCCC1	-5	x
COc1cc(-c2nnc(COC(=O)CSc3ccc4ccccc4c3)o2)cc(OC)c1OC	-2	x
O=C(Cc1n[nH]c(=O)c2ccccc12)OCCOc1cccc(Cl)c1	-1	x
Cc1cccc(N(C)c2nc3ccc(Cl)cc3n3cnnc23)c1	18	x
Cn1nc(-c2ccc(/C=C(\C#N)S(C)(=O)=O)s2)cc1C(F)(F)F	x	1.9
O=C(CCCc1nc(-c2ccccc2)no1)NC1CCCC1	5	0.8
COc1ccc(-n2c(=O)c(C#N)cc3c(=O)n4ccccc4nc32)cc1Cl	-59	11
Cc1ccc2[nH]c(=S)n(-c3ccc(S(=O)(=O)N4CCCCC4)cc3)c(=O)c2c1	x	-1.6
CC1=C(C#N)c2nc(N)c(C#N)c(C)c2/C1=C\c1ccc(Br)o1	x	-1.3
CCc1ccc(NC2=NS(=O)(=O)c3ccccc32)cc1	5	0.2
O=C(O)C1(NS(=O)(=O)c2ccc(Cl)cc2)CCCCC1	4	0.5
CCN1CCN(C(=O)c2csc3c2CCCCC3)CC1	10	-1.4
CC(=O)C1=C(C)NC(C)=C(C(C)=O)C1c1cccc([N+](=O)[O-])c1	x	0.5
NC(=O)CSc1nnc(-c2ccc(C(F)(F)F)cn2)s1	x	0.7
CCc1nc2sc(C(=O)Nc3ccc(OC(F)(F)F)cc3)c(N)c2cc1C	7	-0.5
COc1ccc(NC2CCN(C3CC(=O)N(c4ccc(Cl)cc4)C3=O)CC2)cc1 (configuration not stated)	9	-3.4

Profiles, quoted from the list. Order of screens: S aureus helic	MgrA DNA FP
Profile of CCN1CCN(C(=O)c2csc3c2CCCCC3)CC1 : 10	-1.4
Profile of COc1cc(-c2nnc(COC(=O)CSc3ccc4ccccc4c3)o2)cc(OC)c1OC : -2	x
Profile of NC(=O)CSc1nnc(-c2ccc(C(F)(F)F)cn2)s1 : x	0.7
Profile of CCc1ccc(NC2=NS(=O)(=O)c3ccccc32)cc1 : 5	0.2

Following part:
SMILES	S aureus helic	MgrA DNA FP
CC(C)n1c2ccccc2c2nnc(SCC(=O)NCc3ccc4c(c3)OCO4)nc21	9	x
NS(=O)(=O)c1ccc(NC(=O)/C=C/C(=O)O)cc1	-5	0.6
N#Cc1c(F)cccc1NC1CCN(Cc2ccccc2)CC1	x	-1.3
O=C(O)CCN1C(=O)CSc2ccccc21	0	x
Cc1cc(OC(C)C(=O)N2CCN(Cc3ccccc3)CC2)nc(C(C)C)n1 (configuration not stated)	6	x
CCc1nc(SCC(=O)OC)n[nH]1	2	x
COC(=O)C1=C(C)NC(C)=C(C(=O)OC)C1c1ccc(C(C)C)cc1	9	-1.1
CC(=O)OC1COC(Oc2ccc(C(C)(C)C)cc2)C(OC(C)=O)C1OC(C)=O (configuration not stated)	7	x
O=c1nc(-c2ccccc2)c2cc(Cl)ccc2[nH]1	12&3	-8.2
Cc1c(C)c(C)c(C#CCOC2CCCCO2)c(C)c1C (configuration not stated)	x	0.0
Cn1nc(NC(=O)/C=C/c2ccc(OC(F)(F)F)cc2)c2c(F)cccc21	x	-3.4
O=C(O)CCN1CCSC1=O	-5	x
CN(C)Cc1c(O)ccc2cc(-c3nc4ccccc4o3)c(=O)oc12	-37	x
O=C(NCc1cccs1)c1csc(Cc2c(Cl)cccc2Cl)n1	x	-1.0
O=c1[nH]ncc(NCCc2ccccc2)c1Cl	-10	-0.2
CC(=O)N1CCC(C(=O)Nc2ccc(-c3cnco3)cc2)CC1	x	-3.0
Cc1noc(C)c1COC(=O)Cc1ccc(Cl)cc1	10	x
C/C(=N/O)C1C(=O)c2ccccc2C1=O	-13	1.2
O=C(CN1CCC(C(=O)Nc2ccccc2)CC1)NCc1ccc(CN2CCOCC2)cc1	8	x
O=C(COC(=O)c1cc(F)c(F)cc1Cl)NC1CC1	4	0.7
Cc1ccc2nc(SCC3CCCCO3)[nH]c2c1 (configuration not stated)	12	x
CCN(CC)c1nc(C)nc2c1sc(=S)n2-c1ccccc1	x	1.2
CC(=O)Oc1cccc(NC(=O)CC2SC(N)=NC2=O)c1 (configuration not stated)	4	-2.7
C=CCn1c(=O)c2c(C)c(C)sc2n2c(Nc3ccccc3)nnc12	3	x
O=C(O)CCN(Cc1ccccc1)S(=O)(=O)c1ccccc1Cl	-12	x
CN1CCC(N(C)C(=O)c2ccccc2Nc2ccc(SC(F)F)cc2)CC1	14	x
O=C(COC(=O)C12CC3CC(CC(C3)C1)C2)NCc1ccco1	8	-2.6
COc1ccc2ncc3c(c2c1)-c1cc(Cl)ccc1OC3	x	-0.9
CN(CC(=O)Nc1ccc(N2CCOCC2)cc1)CC(=O)Nc1cccc(Br)c1	-1	x
C=Cn1cccc1C(=O)O	15	-0.8
CCOC(=O)c1cc(CC)sc1/N=C/c1c(C)[nH]n(-c2ccc(C)cc2)c1=O	x	2.6
COc1ccc(OCC(=O)N2c3ccc(F)cc3CCC2C)cc1 (configuration not stated)	7	x
COCCn1c(-c2ccccc2)n[nH]c1=S	-8	6.1
COc1ccc(Sc2ccccc2C(=O)O)cc1	x	0.6
CCc1cc(Cl)n2c(nc3ccccc32)c1C#N	-50	x
CCOC(=O)/C(C#N)=C/NC1CCN(Cc2ccccc2)CC1	-11	x
Nc1nc(N)c2nccnc2n1	2	3.4
CCCN1C2=NCCCN2c2ccccc21	3	2.8
COc1cc(/C=N/NC(=O)CCc2ccc(O)cc2)cc(OC)c1OC	x	-2.5
O=C(O)c1cccc(S(=O)(=O)NC2CC2)c1	11	x
O=C(CSc1ccc(C(F)(F)F)cn1)Nc1ccccc1	x	-1.8
O=C(C1c2ccccc2C(=O)N2CCc3ccccc3C12)N1CCN(c2ccccc2)CC1 (configuration not stated)	-34	x
O=C(Cc1ncc(-c2ccccc2)cn1)c1ccccc1	x	1.8
Cc1ccnc(NS(=O)(=O)c2ccc(N)cc2)n1	x	2.9&3.0
Cc1cc(C(=O)CSc2nnc(CN3CCCC3)o2)c(C)n1-c1ccccc1	19	x

Molecules shown so far that contain a CF3 group, in the order listed:
SMILES	S aureus helic	MgrA DNA FP
N#CC1=C(N)OC2=C(CCCC2=O)C1c1ccccc1C(F)(F)F (configuration not stated)	4	-1.2
Cn1nc(-c2ccc(/C=C(\C#N)S(C)(=O)=O)s2)cc1C(F)(F)F	x	1.9
NC(=O)CSc1nnc(-c2ccc(C(F)(F)F)cn2)s1	x	0.7
CCc1nc2sc(C(=O)Nc3ccc(OC(F)(F)F)cc3)c(N)c2cc1C	7	-0.5
Cn1nc(NC(=O)/C=C/c2ccc(OC(F)(F)F)cc2)c2c(F)cccc21	x	-3.4
O=C(CSc1ccc(C(F)(F)F)cn1)Nc1ccccc1	x	-1.8

At a glance, part of the list above:
SMILES	S aureus helic	MgrA DNA FP
NC(=O)CSc1nnc(-c2ccc(C(F)(F)F)cn2)s1	x	0.7
CCc1nc2sc(C(=O)Nc3ccc(OC(F)(F)F)cc3)c(N)c2cc1C	7	-0.5

Further structures follow.
SMILES	S aureus helic	MgrA DNA FP
NNC(=S)Nc1ccc(Cl)cc1	x	1.1
O=C(CN1C(=O)S/C(=C\C=C\c2ccccc2)C1=O)N1CCOCC1	-13	x
C=CCNS(=O)(=O)c1cc2c3c(c1)CCN3C(=O)CC2	11	x
COc1ccc(CNc2nccs2)cc1OC	-1	-3.1
Cc1cc(C)c(NC(=O)CCNC2CCCCC2)c(C)c1	-16	0.7
CCCn1c(=O)c2ccccc2n2c(SCC(=O)NC(C)(C)C)nnc12	-5	x
Nn1cc(-c2ccccc2)nn1	-18	0.6
CC(=O)Nc1ccc2c(COC(=O)c3ccc(S(=O)(=O)N(C)C)cc3)cc(=O)oc2c1	14	x
CN(C)CCn1c(N)c(-c2nc3ccccc3n2C)c2nc(C#N)c(C#N)nc21	-11	x
CCOc1ccc(OCC)c(S(=O)(=O)NCc2ccco2)c1	3	x
COc1ccc(CNC2C3CC4CC(C3)CC2C4)c(OC)c1C (configuration not stated)	4	-1.2
CCc1ccccc1NC(=O)Cn1cc2c(n1)CCCC2	-13	x
CC(=O)Oc1ccc(C)cc1NC(=O)CC1SC(=Nc2ccc(F)cc2)N(C)C1=O (configuration not stated)	14	2.9
Cc1ccccc1NC(=O)N1CCC(C(N)=O)CC1	4	1.6
CC(=O)n1c(=O)oc2cc(Cl)ccc21	6	2.9
O=C(O)CC1(CC(=O)Nc2cccnc2)CCCC1	15	-1.0
CC(=O)NCC(c1ccco1)N1CCN(c2ccccc2)CC1 (configuration not stated)	-13	x
N#CCNC(=O)c1ccc(Br)cc1	4	-1.4
Cc1onc(-c2c(F)cccc2Cl)c1C(=O)c1ccccc1	x	-0.1
O=C(COC(=O)C1CCN(S(=O)(=O)c2ccc3c(c2)OCCO3)CC1)c1c[nH]c2ccccc12	-10	x
CCCCSc1nnc(-c2ccc3[nH]c(C)c(C)c3c2)o1	0	0.5
COC(=O)c1ccccc1NC(=O)/C=N/O	x	-1.3
COc1ccc(/C=C(\C#N)c2nc(-c3cc4cc(Br)ccc4oc3=O)cs2)cc1	x	0.0
COc1ccccc1C(=O)Nc1ccc(-c2nc3ccccc3o2)cc1	x	-0.2
O=C1CSC2(C(=O)Nc3ccccc32)N1c1ccccc1 (configuration not stated)	3	x
Nc1cccc(Nc2ncnc3ccccc23)c1	13	0.0
O=C(O)c1ccc2c(c1)N(Cc1ccc(F)cc1)C(=O)/C(=C\c1ccccc1)S2	13	1.8
COCCn1c(O)c(/C=N/c2c(C#N)c(C)c(C)n2C2CCCCC2)c(=O)[nH]c1=S	-211	x
ClCc1cnn(-c2ccccc2)c1-n1cccc1	13	x
CC(C)NC(=O)COc1ccc(S(=O)(=O)N2CCCC2)cc1	7	4.3
O=c1ccc(C(F)(F)F)cn1Cc1cc2c(cc1Br)OCO2	9	x
Cc1cc2nc(-c3ccc(SCC#N)nc3)[nH]c2cc1C	4	2.7
COCCn1c(Sc2ncnc3sccc23)nc2ccccc21	-7	x
CC(C)(C)Nc1nc(Cl)nc(Oc2ccc(=O)n(-c3ccccc3)n2)n1	6	x
Nc1c2c(nc3ccccc13)CCCC2	x	6.6
O=C(COC(=O)Cc1cn2ccsc2n1)Nc1ccc(Br)cc1	9	x
CC(=O)N(C)Cc1nc2ccccc2n1C	-6	-0.6
Ic1ccc(-n2cccc2)cc1	x	-1.7
Cc1ccc(C(=O)OCC(=O)Nc2ccc(Cl)c(Cl)c2)s1	5	-0.8
O=C(CSc1ccccc1)NCc1cccs1	x	1.1
Cc1ccc(CCNS(=O)(=O)c2c(C)nc3sccn3c2=O)cc1	-27	x
O=C(COC(=O)/C=C/c1ccco1)Nc1cc(-c2ccccc2)nn1-c1ccccc1	-4	x
COC(=O)c1ccc(N(C=O)C(=S)SC)cc1	15	x
Cc1cc(Nc2ccccc2)nc(Nc2ccccc2)n1	3	-0.4
O=C1CCCN1c1ccc(Cl)c(Cl)c1	x	1.1
N/C(=N/O)c1ccccc1N	4	0.3
Cn1c(NC(=O)c2ccccc2NC(=O)c2ccccc2)nc2ccccc21	-11	2.4
COC(=O)c1sccc1Oc1ccc(Cl)cc1N1C(=O)CCC1=O	x	-3.0
CC(C)(C)OC(=O)N1CCC(CNS(=O)(=O)c2cccc(C(F)(F)F)c2)CC1	x	1.5

Rewritten with two lines to a compound: entries from further up.
Order of values: S aureus helic | MgrA DNA FP
N/C(=N/O)c1ccccc1N
    4 | 0.3
COC(=O)c1sccc1Oc1ccc(Cl)cc1N1C(=O)CCC1=O
    x | -3.0

Screening results from PubChem BioAssay.

Some of the compounds tested, so the mix of outcomes need not match the whole.
